# Screens: PubChem BioAssay, several laboratories
# CSC inhib = cancer stem cell inhibition; cancer stem cell-like cells viability, luminescence; inhibition, % at 7.5 µM; 300,000 tested, 1.1% active;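 active means mean at 75% or more and at least half the replicates too; inconclusive means mean and replicates disagree; tested in HMLE shEcad cells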;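 further: 0% = median of negative and 100% = median of positive control wells; the first replicate is given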
# Yeast UUG start = modulators of start codon recognition fidelity in yeast | S. cerevisiae UUG-firefly luciferase reporter, luminescence/redox ratio | activity score, % at 18.7 µM | 350,000 tested, 0.13% active | AID 602363;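 active means replicate mean at a twofold rise or more, about +100% in these data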;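 further: firefly luciferase made from a UUG start codon reports start codon fidelity; reporter light over untreated wells divided by growth signal over untreated wells; some hits fall short of that in this replicate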
# MT1-MMP act inh = MT1-MMP (human) activation inhibition | HT1080 RFP-PRO-GFP cells, GFP/RFP ratio fluorescence, overnight; percent of plate control window, DMSO zero | GFP/RFP ratio change, % at 20 µM | 360,000 tested, 0.061% active | AID 651647 | P50281;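 active means GFP/RFP ratio change of at least 30% with cell ATP level not reduced by more than half and red fluorescence within 50% of control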; further: strong numbers were not always called active
#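 Assay system: HT1080 RFP-PRO-GFP cells | Dosing: 20 µM single dose, 1% DMSO | Incubation: Cells overnight before dosing, compound overnight, 37 °C, 5% CO2 | Evaluation: GFP/RFP fluorescence ratio | Control set: DMSO-only wells and HT1080 RFP-L50D-GFP cell wells as references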
# eIF4H inh = inhibitors of RNA binding by human eIF4H. 290,000 tested, 0.94% active. eIF4H fluorescence polarization binding assay. Q15056. inhibition, % at 35 µM. AID 2012;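 active means 50% or more with normal probe brightness, or confirmed in later tests; inconclusive means above 50% with abnormal brightness, or retests that disagree; inactive means below 50% or failed in later tests; about a fifth of its hits are not listed in these tables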;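 further: calls also rest on retests at 20 µM and on dose response follow-up; 0% = protein and probe with vehicle and 100% = probe without protein; strong numbers were not always called active; many hits fall short of the cut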
# Rce1 inh = blocks yeast Ras-converting enzyme | Q03530 | yeast membranes, quenched prenylated peptide cleavage fluorescence | calls only | 290,000 tested, 0.27% active | AID 2563;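 active means fall in fluorescence gain of 50% or more versus controls, with final raw signal at or below 3038400; inconclusive means same 50% fall but final raw signal above 3038400; inactive means fall in fluorescence gain under 50%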;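 further: plate controls were neutral control wells for no effect and wells lacking membranes for full effect; tested at 10 µM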
# Target sequence (Q03530 whole entry, looked up): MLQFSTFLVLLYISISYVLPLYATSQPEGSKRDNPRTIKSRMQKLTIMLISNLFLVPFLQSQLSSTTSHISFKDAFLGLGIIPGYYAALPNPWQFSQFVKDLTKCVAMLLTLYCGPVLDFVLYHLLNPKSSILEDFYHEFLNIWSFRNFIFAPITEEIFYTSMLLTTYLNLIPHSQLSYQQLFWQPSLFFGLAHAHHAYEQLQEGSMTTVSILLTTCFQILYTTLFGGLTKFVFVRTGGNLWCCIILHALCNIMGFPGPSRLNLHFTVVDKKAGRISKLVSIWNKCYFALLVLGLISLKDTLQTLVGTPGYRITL
# HIV Env fusion = inhibitors of HIV Env-mediated cell fusion. HeLa-JRFL Env/CEM21 cell fusion, luciferase. inhibition, % at 12.3 µM. 360,000 tested, 1.1% active. AID 651610;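 active means mean replicate inhibition score of at least 50 and every replicate individually at or above 50; inconclusive means only one of the two criteria met; inactive means mean below 50 and not all replicates reaching 50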;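 further: 0% = plate neutral controls and 100% = maraviroc near 300 nM; one replicate is shown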
# PABP polyA inh = blocks human PABP binding to poly(A) RNA. P11940. fluorescence polarization. inhibition, % at 35 µM. 290,000 tested, 1% active. AID 2014;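 active means 50% or more with normal probe brightness, or confirmed in later tests; inconclusive means above 50% with abnormal brightness, or retests that disagree; inactive means below 50% or failed in later tests; about a fifth of its hits are not listed in these tables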;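 further: calls also rest on retests at 20 µM and on dose response follow-up; controls were probe without protein and protein plus probe with vehicle; some compounds called inactive have numbers as strong as hits; many hits fall short of the cut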
# Target sequence (P11940 whole entry, looked up): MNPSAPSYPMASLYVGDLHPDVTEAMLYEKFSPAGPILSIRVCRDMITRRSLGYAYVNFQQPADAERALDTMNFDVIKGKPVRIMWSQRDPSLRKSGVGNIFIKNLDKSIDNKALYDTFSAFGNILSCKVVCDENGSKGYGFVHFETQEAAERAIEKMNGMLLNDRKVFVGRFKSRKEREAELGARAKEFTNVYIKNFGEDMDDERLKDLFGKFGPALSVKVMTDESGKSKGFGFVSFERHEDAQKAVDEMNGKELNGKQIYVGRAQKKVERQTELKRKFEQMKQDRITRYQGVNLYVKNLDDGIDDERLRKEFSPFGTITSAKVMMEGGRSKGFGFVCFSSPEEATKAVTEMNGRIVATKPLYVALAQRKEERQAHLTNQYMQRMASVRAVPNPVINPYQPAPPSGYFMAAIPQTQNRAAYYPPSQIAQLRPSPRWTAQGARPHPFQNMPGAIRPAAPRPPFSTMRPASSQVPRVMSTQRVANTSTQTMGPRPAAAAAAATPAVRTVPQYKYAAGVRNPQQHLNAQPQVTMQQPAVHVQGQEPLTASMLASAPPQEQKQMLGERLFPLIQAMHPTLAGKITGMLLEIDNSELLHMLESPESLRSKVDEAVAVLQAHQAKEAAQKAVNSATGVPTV
# MT1-MMP act inh RFP = also measured in MT1-MMP act inh; calls as there; RFP signal change, %; measured here: RFP expression control read;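 0 = vehicle wells; hits needed this value within 50% of zero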
# Numbers without * were called inactive; i = inactive; ? = inconclusive; . = not tested or not shown. This is a subset (hit frequency here may not be typical).
SMILES,CSC inhib,Yeast UUG start,MT1-MMP act inh,MT1-MMP act inh RFP,eIF4H inh,Rce1 inh,HIV Env fusion,PABP polyA inh
COc1ccc(/C=C2\SC(N)=NC2=O)cc1Cl,5.8,-11.8,0.2,1.9,-1.8,i,-1.3,-3.2
O=S(=O)(Nc1cc(S(=O)(=O)N2CCCC2)ccc1O)c1ccc(Cl)s1,.,-12.6,6.5,0.4,.,.,-1.1,.
O=C(c1ccc(OCc2cn3ccccc3n2)cc1)N1CCN(S(=O)(=O)c2ccccc2F)CC1,.,-12.4,-0.4,-8.5,.,.,24.2,.
CC1(C(=O)Nc2ccc3c(c2)OCCO3)CC1(Cl)Cl (stereo not given),-4.7,-22.9,-2.8,0.1,-1.6,i,-5.0,-10.5
Brc1ccc(-c2ncc(-c3ccccc3)cn2)cc1,-2.8,-14.6,0.4,3.9,2.6,i,.,-11.3
Cc1ccc(NNc2c(C)nc3ccccc3nc2=O)cc1,34.9,.,15.7,-0.1,4.5,i,23.5,6.4
Cc1ccc(/C=N/NC(=O)C2(C)CC2(Br)Br)cc1 (stereo not given),5.5,1.3,-1.2,-1.9,-12.1,i,4.7,-13.9
CC(C)CCn1cnc2c(c1=O)c1nc3ccccc3nc1n2Cc1ccc2c(c1)OCO2,.,-12.1,-9.0,-2.4,-4.6,i,.,8.8
COc1cc(OC)c(NS(=O)(=O)c2cc(C(=O)OCC(=O)NCC3CCCO3)ccc2OC)cc1Cl (stereo not given),-9.5,.,-2.0,4.7,-7.6,i,2.0,-40.3
CCOCCn1c(SCc2ccccc2)nc2c1c(=O)[nH]c(=O)n2C,4.2,11.7,-2.5,1.6,-2.4,i,-13.6,9.4
O=c1c2ccccc2nc(N2CCN(c3ccccc3)CC2)n1Cc1ccccc1,7.5,-21.1,-9.6,-10.9,-1.5,i,-1.3,-6.8
CCOc1ccc(/C=C/C(=O)CCC(=O)O)cc1,3.2,-22.8,3.3,-5.3,-1.1,i,-47.9,-8.3
O=C(N/N=C/C=C/c1ccccc1)c1cccs1,-3.0,.,-1.7,1.9,18.3,i,8.3,1.2
CCCn1nc(Oc2nc(SC)nc(N(C)C)n2)ccc1=O,-21.5,-9.1,5.4,5.9,-0.3,i,.,-0.1
COc1ccc(CCNC(=O)C2CCN(S(=O)(=O)N3CCCCC3)CC2)cc1OC,-13.0,-2.6,-0.1,0.5,-2.9,i,-74.9,3.7
CCC(C(=O)OCC(=O)N1CCN(S(=O)(=O)c2ccc(C)cc2C)CC1)c1ccccc1 (stereo not given),.,6.8,-3.5,-1.9,.,.,5.0,.
COc1ccc(-c2ccc(CN3C(C(C)C)C(=O)N(Cc4cn(CCC5OCCCO5)nn4)CCS3(=O)=O)cc2)cn1 (stereo not given),.,-0.4,1.2,-2.4,.,.,-15.2,.
CCC(CC)C(=O)Oc1c(Sc2ccccc2[N+](=O)[O-])c(C)nn1C(C)(C)C,42.9,.,-3.7,-7.1,-11.1,i,18.4,-5.8
O=C(O)c1ccc(NS(=O)(=O)c2cccc3cccnc23)cc1,-5.6,11.0,1.1,3.7,5.7,i,6.6,-4.8
COc1ccccc1N1CCN(C(=O)CN2C(=O)c3cccc4cccc(c34)C2=O)CC1,-8.7,2.3,-1.3,3.1,-12.1,i,-1.3,-5.7
COc1ccccc1NS(=O)(=O)c1ccc2nc(CCl)[nH]c2c1,3.0,-9.2,-0.3,-0.7,-15.6,i,-2.8,12.6
Cc1ccc2[nH]cc(CCNC(=O)c3cccs3)c2c1,-3.7,-10.6,0.2,-1.0,9.6,i,-17.3,2.9
Cc1sc2ncnc(NCC3COc4ccccc4O3)c2c1C (stereo not given),3.5,.,0.7,-24.4,-11.2,i,29.5,-2.4
O=C(Nc1ccccc1Cl)c1csc(-c2cccnc2)n1,-3.0,-10.2,-3.4,-1.7,-7.1,.,-14.8,5.3
Cc1c(S(=O)(=O)N2CCN(C(=O)c3ccco3)CC2)c(=O)n(C)c(=O)n1C,0.2,18.4,2.5,7.2,3.0,i,.,5.4
# (next part)
SMILES,CSC inhib,Yeast UUG start,MT1-MMP act inh,MT1-MMP act inh RFP,eIF4H inh,Rce1 inh,HIV Env fusion,PABP polyA inh
O=C(NC(c1ccccc1)c1ccsc1)C1CCN(Cc2ccc(Cl)c(Cl)c2)CC1 (stereo not given),.,-33.6,5.1,-5.9,.,.,11.9,.
CCOC(=O)c1ccc(NC(=O)c2c(N)n(Cc3ccccc3)c(=O)[nH]c2=O)cc1,-0.6,-13.7,-0.8,-0.4,.,i,37.0,.
Cc1ccc(S(=O)(=O)/N=c2\ccc(Cl)cn2C(F)F)cc1,2.9,.,-3.3,3.2,2.3,i,-10.5,-7.1
Cc1ccccc1NC(=O)N1CCNC(=O)C1CC(=O)Nc1cc(Cl)ccc1Cl (stereo not given),-11.5,-2.6,0.0,7.1,-14.2,i,3.8,7.6
CC1CCCN(C(=O)C2CCN(S(=O)(=O)c3cccc4nsnc34)CC2)C1 (stereo not given),-7.4,-8.2,-1.4,1.6,-6.9,i,-6.1,4.9
COc1ccc(NS(=O)(=O)c2cccc3ccccc23)cc1,39.8,-1.7,0.6,-4.7,.,i,1.8,.
O=C(c1ccccc1)N1CCN(c2ccc([N+](=O)[O-])cc2-n2cccc2)CC1,-12.4,.,-6.9,-8.9,-3.3,i,11.3,7.5
C=CCn1c(=O)c(C(=O)NCc2ccc3c(c2)OCO3)c(O)c2ccccc21,55.1,-0.5,6.1,6.4,5.3,i,23.4,-7.7
O=C(COC(=O)C1=COCCO1)Nc1c(F)cccc1F,-6.7,-8.3,-2.2,-0.5,.,i,.,.
Cc1cccc(NC(=O)c2cc(NC(=O)CCCC(=O)O)ccc2Cl)n1,-7.7,-3.6,-1.8,3.4,-5.5,i,-73.3,-2.7
Cc1ccccc1C(c1ncccc1C)N(C)C(=O)C1CCN(CCOc2ccc(Cl)cc2Cl)CC1 (stereo not given),.,-4.7,-0.7,-4.6,.,.,36.0,.
c1ccc2c(NC3=NCCCCS3)cccc2c1,-3.5,0.4,-6.0,0.5,-2.4,i,-18.6,-0.9
CC(C)(C)c1ccc(OCCON2C(=O)CCC2=O)c(Cl)c1,-6.0,-9.4,5.7,4.8,-2.0,i,-52.2,-2.5
O=C(NC1CCS(=O)(=O)C1)c1cc(-c2ccccc2)nc2ccccc12 (stereo not given),-8.4,-1.7,-4.7,-4.5,-15.5,i,-17.1,0.7
N#CC(c1ccccc1F)(c1ncc(C(F)(F)F)cc1Cl)N1CCOCC1 (stereo not given),.,8.1,5.5,0.0,0.8,i,-49.5,-8.5
CC(C)S(=O)(=O)N1CCCC(c2cc(C(=O)NCc3cccnc3)no2)C1 (stereo not given),.,-9.6,-0.2,3.5,.,.,-41.4,.
CCCn1c(=N)c(C#N)cc2c(=O)n3ccccc3nc21,-10.5,.,1.5,-1.9,0.6,.,-3.5,4.8
CN(C)CCCO[C@@H]1[C@H]2OC(C)(C)O[C@H]2O[C@@H]1[C@H](O)CO,-3.7,-19.5,6.4,12.2,.,.,15.3,.
COc1cc(/C=N/NC(=S)Nc2cccnc2)cc(OC)c1OC,9.3,.,4.2,5.5,-4.2,i,26.8,-5.0
CC(C)(C)OC(=O)N1CCC[C@H]1c1nnc(SCc2ccc(Cl)cc2)o1,-3.3,2.0,-0.2,-2.0,-8.9,i,0.9,-8.0
Cc1ccc(N(CC(=O)N2CCCCC2)S(=O)(=O)c2ccc(C)cc2)cc1,-9.8,.,2.0,4.1,-7.1,i,-14.8,-5.2
CC(SC1=NCCN1S(C)(=O)=O)c1ccccc1 (stereo not given),-0.3,-15.1,4.6,3.8,-3.9,i,1.4,9.0
COc1ccc(S(=O)(=O)Nc2cc3[nH]c(=O)oc3cc2C)cc1,9.7,-17.4,1.2,-0.9,9.8,i,-0.4,16.3
COc1ccc(NC(=O)c2ccc(-c3ccccc3)cc2)cc1NS(=O)(=O)c1ccc(F)cc1,26.4,.,-8.7,-23.3,1.6,i,46.2,4.9
CCc1nc2c(OCC(=O)N3CCOCC3)cccn2c1N(C)C(=O)COc1ccccc1,.,-15.7,-1.1,-2.2,.,.,-6.3,.

# By substructure, the compounds so far with a COOH group
SMILES,CSC inhib,Yeast UUG start,MT1-MMP act inh,MT1-MMP act inh RFP,eIF4H inh,Rce1 inh,HIV Env fusion,PABP polyA inh
CCOc1ccc(/C=C/C(=O)CCC(=O)O)cc1,3.2,-22.8,3.3,-5.3,-1.1,i,-47.9,-8.3
O=C(O)c1ccc(NS(=O)(=O)c2cccc3cccnc23)cc1,-5.6,11.0,1.1,3.7,5.7,i,6.6,-4.8
Cc1cccc(NC(=O)c2cc(NC(=O)CCCC(=O)O)ccc2Cl)n1,-7.7,-3.6,-1.8,3.4,-5.5,i,-73.3,-2.7

# The listing continues:
SMILES,CSC inhib,Yeast UUG start,MT1-MMP act inh,MT1-MMP act inh RFP,eIF4H inh,Rce1 inh,HIV Env fusion,PABP polyA inh
Cc1cccc(NC(=O)CN2CCN(CC(=O)Nc3ccc(-c4ccccc4)cc3)CC2)c1C,-3.0,-2.9,2.0,0.4,4.6,i,8.1,3.5
CC(=O)Nc1cccc(NC(=O)c2cc(-c3cccnc3)nc3ccc(Cl)cc23)c1,13.0,.,-5.1,-1.1,-3.5,i,-13.2,-9.6
NC(c1csc(Nc2ccc(C(=O)NCCCO)cn2)n1)c1ccccc1Cl (stereo not given),.,-13.4,-5.7,-2.2,.,.,19.7,.
COc1cc2c(=O)n(Cc3ccccc3)c(=O)n(CC(=O)C(C)(C)C)c2cc1OC,5.9,.,.,.,-11.9,i,.,-1.8
O=C(NCC1CCCCC1)c1cccc([N+](=O)[O-])c1,-16.0,-7.6,-3.5,5.1,-5.4,i,-1.2,10.3
O=C(Oc1cccc2c(OC(=O)N3CCOCC3)cccc12)N1CCOCC1,-4.2,-18.7,3.8,-1.7,-5.6,i,13.6,3.0
O=C(Nc1nccs1)c1cccc(NC(=O)C(F)(F)F)c1,-11.2,.,-4.3,-1.9,-2.8,.,5.8,-0.6
COc1ccc(/C=C/C(=O)OCCCN(C)C)cc1,-3.1,.,2.0,4.5,0.4,i,12.7,-5.0
COc1ccc(NC(=S)NCCCN2CCCC2)cc1,13.6,-26.6,.,.,3.4,i,-14.9,-2.8
CN(C(=O)Cn1cnc([N+](=O)[O-])n1)C1CCCCC1,-3.7,-12.5,3.3,5.7,5.1,i,-0.2,10.3
Cc1ccc(Cc2c(-c3ccc(Br)cc3)nc3cc(C)ccn23)cc1,.,25.8,-8.8,-14.9,.,.,35.9,.
O=C(O)CN1C(=O)/C(=C/c2ccccc2Cl)Oc2ccccc21,-23.6,6.5,2.6,3.4,-52.7,i,7.6,-0.8
Clc1ccc(C2Nc3ccccc3-n3cccc32)cc1 (stereo not given),3.1,-16.6,-5.7,3.0,-0.4,i,24.1,0.4
O=C(COC(=O)CCC(=O)c1ccccc1)NNC(=O)c1ccc(Cl)cc1,.,-2.9,1.2,4.8,.,i,.,.
Cc1cc(C(=O)Nc2ccc(OCc3ccccc3)cc2)c(C)o1,.,-32.5,1.4,-2.1,8.0,i,-0.8,-3.2
CCOC(=O)c1ccc(NC(=S)Nc2cc(C)cc(C)n2)cc1,-8.8,.,1.8,2.0,-1.1,i,4.9,-5.1
CCOC(=O)CN1C(=O)N[C@@H](c2ccccc2)C(C(=O)OC)=C1C,-3.5,-11.7,5.3,2.6,-5.5,.,.,-10.9
C=C(C)c1ccccc1NC(=O)CCN1C(=O)c2ccccc2S1(=O)=O,.,-12.3,-3.0,-5.3,-2.6,i,11.7,5.9
Cc1cc2cc3c(cc2nc1SCC(=O)O)OCCO3,6.8,-17.7,3.0,4.6,-0.9,.,.,?
